Compound activity: PubChem BioAssay, several laboratories
Arbovirus inh – arbovirus infection inhibition; arbovirus infection cell-based antiviral screen; inhibition, % at 10 µM; actives 0.37% (n = 200,000); AID 1251;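 active means inhibition from about 30%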;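 further: bluetongue infection of BSR cells; cell survival read as ATP light after 72 h; 0% = infected wells without compound and 100% = uninfected wells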
Mtb H37Rv – M. tuberculosis H37Rv growth inhibitors, H37Rv strain (AID 1626) | M. tuberculosis H37Rv growth inhibition; higher % means a stronger effect | inhibition, % at 10 µM, or IC50 in µM where a hit was titrated | actives 0.95% (n = 220,000);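 active means confirmed in a dose series; inconclusive means inhibition above 80% but not taken into the dose series; inactive means below 80% or under 30% at every dose of the series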;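 further: bacteria incubated seven days before Alamar blue readout; 0% = bacteria only wells and 100% = bacteria with antibiotic wells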
RecA splice inh – blocks M. tuberculosis RecA intein splicing. P9WHJ3. inhibition, %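 (about 9 µM by stock and volumes)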. actives 0.75% (n = 290,000). cell-free RecA intein splicing, fluorescence. AID 2221; in the data active means inhibition above about 30%; inconclusive means no clear call, values can overlap the other calls;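 further: 0% = vehicle wells and 100% = reference inhibitor control wells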
Target sequence (P9WHJ3 whole entry, looked up, canonical isoform): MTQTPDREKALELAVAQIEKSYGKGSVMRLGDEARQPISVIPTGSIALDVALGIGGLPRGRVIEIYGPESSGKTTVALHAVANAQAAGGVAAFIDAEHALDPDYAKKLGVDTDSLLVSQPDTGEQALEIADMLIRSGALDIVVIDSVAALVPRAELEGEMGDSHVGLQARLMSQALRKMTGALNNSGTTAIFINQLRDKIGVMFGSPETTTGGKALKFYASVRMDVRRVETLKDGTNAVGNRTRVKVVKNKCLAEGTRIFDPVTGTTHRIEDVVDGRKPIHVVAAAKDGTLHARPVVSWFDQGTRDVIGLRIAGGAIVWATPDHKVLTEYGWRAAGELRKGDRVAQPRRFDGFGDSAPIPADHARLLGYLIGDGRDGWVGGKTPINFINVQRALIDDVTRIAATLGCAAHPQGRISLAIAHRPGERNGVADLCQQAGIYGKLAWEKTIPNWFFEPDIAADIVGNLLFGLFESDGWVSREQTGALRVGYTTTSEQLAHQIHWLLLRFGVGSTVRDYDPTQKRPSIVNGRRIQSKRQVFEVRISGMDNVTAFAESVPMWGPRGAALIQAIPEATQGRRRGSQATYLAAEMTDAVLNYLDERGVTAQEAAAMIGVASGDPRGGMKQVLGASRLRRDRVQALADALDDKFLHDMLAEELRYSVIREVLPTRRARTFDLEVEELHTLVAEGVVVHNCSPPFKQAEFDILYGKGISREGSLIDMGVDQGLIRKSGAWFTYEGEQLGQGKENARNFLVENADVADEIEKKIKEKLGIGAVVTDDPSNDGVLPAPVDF
Mtb bLac sens – beta-lactam sensitization of Mtb H37Rv. M. tuberculosis H37Rv growth with meropenem, percent inhibition; hits of this screen are not shown here. inhibition, % at 25 µM. actives 0.27% (n = 330,000). AID 434955;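 active means about 74% or more and at least 40 points above the plate without the antibiotic, then above 30% in a dose series; inconclusive means first-round hits that could not be retested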;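 further: growth measured after seven days incubation then overnight dye step; 0% = bacteria only wells and 100% = bacteria with antibiotic; twin plates without the antibiotic show which effects depend on it; some results filed as inactive read as strong as hits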
YopH inh – inhibitors of Yersinia enterocolitica YopH tyrosine phosphatase. fluorescence Ex485/Em525. inhibition, %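 (about 10 µM by stock and volumes)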. actives 0.16% (n = 140,000). AID 898;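 active means inhibition of 50% or more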;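 further: controls were vehicle for no effect and minimum signal wells for full effect; inactives centre near -20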
Arbovirus inh repeat – second read-out of Arbovirus inh, no call of its own (marks repeat the call); inhibition, %; measured here: 10K subset replicate screen; many hits read low in the repeat;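 first of two repeat runs on a subset; 0% = infected and 100% = uninfected wells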
Numbers without * were called inactive; ? = inconclusive; · = not tested or not shown; & = joins results of further samples. This is a subset; the hit share may differ from the screen's.

SMILES | Arbovirus inh | Mtb H37Rv | RecA splice inh | Mtb bLac sens | YopH inh | others
COc1ccc(CCNC(=O)CCC(=O)N2CCOc3ccc(Cl)cc32)cc1OC | · | · | -0.9 | -1 | ·
CCCN1C(=O)/C(=C/c2ccc(C)o2)SC1=Nc1ccc(OC)cc1 | -9 | 15% | 7.2 | -2 | -8
O=c1[nH]c(=S)n(C2CC2)c(O)c1C=Nc1cccc(C(F)(F)F)c1 | -7 | -13% | -2.0 | ? | -34
CO/N=C/c1c(-c2ccc(Cl)cc2)nc2cc(C)ccn12 | -1 | 1% | · | 73 | ·
COC(=O)c1ccc(-c2nc(CN3CCN(Cc4cccc(C)c4)CC3)c(C)o2)cc1 | · | · | 2.8 | 7 | ·
CCOC(=O)C1=C(CN2CCN(c3ccc(F)cc3)CC2)NC(=O)NC1c1cccs1 (stereo not given) | -20 | 3% | 6.5 | 8 | -31
CCOC(=O)C1(CC)NC(c2ccc(OC)cc2OC)C2C(=O)N(C)C(=O)C21 (stereo not given) | 5 | -10% | 0.8 | -3 | ·
CCC1Oc2ccc(C)cc2N(CC(=O)NCCCN2CCCC2)C1=O (stereo not given) | · | · | 0.1 | -2 | ·
COCCOC(=O)/C(C#N)=C/c1cn(Cc2ccccc2)nc1-c1cccnc1 | -2 | 3% | -0.3 | -1 | ·
CCOC(=O)C1(Cc2ccc(OC)cc2)CCN(C(=O)CN2CCCCC2=O)CC1 | 3 | 9% | -0.8 | -6 | ·
O=C(O)C1CCCCC1C(=O)Nc1ccc2c(c1)OCCO2 (stereo not given) | 2 | -9% | 0.3 | -5 | -35
O=C(NC(=S)Nc1cccnc1)c1cccc(Br)c1 | · | · | 0.4 | 2 | ·
COc1ccc(NC(=O)c2ccc3c(c2)CCN3S(=O)(=O)c2ccccc2)c(OC)c1 | · | · | -0.6 | 1 | ·
COc1ccc2oc(C)c(C(N)=O)c2c1 | 0 | -7% | 1.8 | -16 | -36
CCOC(=O)C1=C(N)N2C(=O)C(C)SC2=C(C(=O)OC)C1c1ccccc1OC (stereo not given) | 9 | -6% | · | -3 | -25
C=CCNC(=S)NC(CC(=O)OC)c1ccc2c(c1)OCO2 (stereo not given) | 11 | 1% | 1.5 | 3 | ·
COc1ccccc1-c1cc(C(=O)NCCc2ccccc2)no1 | -18 | -3% | 2.1 | -6 | -17
Cc1c(C(=O)C(=O)N2CCCc3ccccc32)c2ccccc2n1C | -7 | 3% | 0.1 | 2 | -33
Cc1ccc(NS(=O)(=O)c2cc(C(=O)Nc3cccnc3)ccc2C)cc1 | · | · | 2.0 | -2 | ·
CCn1c(C)c(C)c2cc(C(=O)NCCCN3CCCCC3C)ccc21 (stereo not given) | · | · | -4.7 | -12 | ·
O=C(O)C1CC1C(=O)Nc1nc2c(Cl)cccc2s1 (stereo not given) | · | · | -1.1 | -4 | ·
COc1ccc(C(=S)Nc2ccc(N(C)C)cc2)cc1 | 7 | -9% | -8.4 | 10 | -19
O=C(Nc1ccccc1N1CCOCC1)c1cccc2c(Br)cccc12 | · | · | 11 | -1 | ·
CCCCCC(=O)N1CC2(CC(c3cccc(NC(=O)CC(c4ccccc4)c4ccccc4)c3)=NO2)C[C@@H]1C(N)=O (stereo not given in full) | · | 11% | 15 | 99 | ·
COc1ccc(C(=S)N2CCN(c3cccc(Cl)c3)CC2)cc1 | · | -12%&-3% | 8.7 | -16 | ·
Cn1c(=O)oc2cc(S(=O)(=O)NCCC(=O)N3CC=C(c4ccccc4)CC3)ccc21 | 6 | 0% | 2.9 | -9 | -44
CCCn1c(N)c(N(CCOC)C(=O)c2cccc(C(F)(F)F)c2)c(=O)[nH]c1=O | · | · | 0.2 | 0 | ·
CN(C(=O)CN1C(=O)/C(=C/c2ccccc2F)SC1=S)C1CCS(=O)(=O)C1 (stereo not given) | · | · | 1.3 | -6 | ·
COc1cccc(NC(=O)c2ccc3c(c2)CCN3S(C)(=O)=O)c1 | · | · | -0.3 | -6 | ·
CC(=O)C1=C(C)OC(N)=C(C#N)C1c1cccc([N+](=O)[O-])c1 (stereo not given) | -2 | 5% | -2.0 | -6 | ·
CCS(=O)(=O)N1CCCC(C(=O)NCc2ccc3c(c2)OCO3)C1 (stereo not given) | -4 | -16% | -2.3 | -16 | -39
COc1cc2cc(C(=O)N/N=C/c3cccc(OC)c3OC)[nH]c2cc1OC | · | · | 0.3 | -2 | ·
C[C@H](NS(=O)(=O)c1ccc(Cl)cc1)C(=O)OCC(=O)c1ccc[nH]1 | · | -11% | 0.5 | -12 | ·
CCC(=O)NC(c1ccccc1)c1nc2ccccc2[nH]1 (stereo not given) | 10 | -2% | 6.2 | -2 | -15 | Arbovirus inh repeat=2
O=C(O)C1Cn2c(nc3c(c2=O)C2(CCCC2)Cc2ccccc2-3)S1 (stereo not given) | 16 | -2% | -0.5 | -12 | ·
Cc1ccc(NC(=O)c2ccc(C#CC3(O)CCCCC3)cc2)cc1C | 1 | 1% | · | -2 | -34
COc1cc(C(=O)O)nc2ccccc12 | -2 | -2% | -5.4 | -6 | -56
CCOC(=O)c1cnc(SCC(C)C)nc1N | 5 | -7% | -1.2 | 2 | 21
Cc1ccc2oc(C(=O)NCc3ccc(S(N)(=O)=O)cc3)cc(=O)c2c1 | · | · | -2.8 | 5 | ·
Cc1[nH]c2c(C)cccc2c1CCNS(=O)(=O)c1cccc([N+](=O)[O-])c1 | 2 | -2% | 2.1 | 7 | -6
NC(=O)c1ccccc1NC(=O)Nc1ccccc1Cl | -5 | -2% | 2.5 | -7 | ·
CC(C)=CCN1CCN(Cc2c[nH]c3ccccc23)CC1CCO (stereo not given) | · | · | -0.7 | 0 | ·
CCCCC1=CC2=C(c3ccco3)C(=O)C(C)(OC(=O)c3ccc(OC)cc3)C(=O)C2=CN1C1CCCC1 (stereo not given) | · | -12% | -13 | 15 | ·
Cc1oc(-c2ccc(Cl)cc2)nc1CSCC(=O)NCCCN1CCOCC1 | 4 | -14% | 3.8 | 0 | -40
COc1cc(NC(=O)CN(C)S(=O)(=O)c2ccc3nc(C)sc3c2)cc(OC)c1 | -4 | 8% | 0.8 | -7 | ·

Quoted from the entries so far, six compounds:
SMILES | Arbovirus inh | Mtb H37Rv | RecA splice inh | Mtb bLac sens | YopH inh | others
CCOC(=O)c1cnc(SCC(C)C)nc1N | 5 | -7% | -1.2 | 2 | 21
Cc1ccc2oc(C(=O)NCc3ccc(S(N)(=O)=O)cc3)cc(=O)c2c1 | · | · | -2.8 | 5 | ·
Cc1[nH]c2c(C)cccc2c1CCNS(=O)(=O)c1cccc([N+](=O)[O-])c1 | 2 | -2% | 2.1 | 7 | -6
NC(=O)c1ccccc1NC(=O)Nc1ccccc1Cl | -5 | -2% | 2.5 | -7 | ·
CC(C)=CCN1CCN(Cc2c[nH]c3ccccc23)CC1CCO (stereo not given) | · | · | -0.7 | 0 | ·
CCCCC1=CC2=C(c3ccco3)C(=O)C(C)(OC(=O)c3ccc(OC)cc3)C(=O)C2=CN1C1CCCC1 (stereo not given) | · | -12% | -13 | 15 | ·

(listing goes on)
SMILES | Arbovirus inh | Mtb H37Rv | RecA splice inh | Mtb bLac sens | YopH inh | others
COc1ccccc1CC(=O)N1CCCc2cc(C)ccc21 | · | · | 1.9 | 6 | ·
Cc1ccc(OCC(=O)Nc2ccc(-c3nc4ncccc4o3)cc2)cc1 | -4 | -9% | 1.4 | -4 | -107
Cc1ccc(CCc2nnc(SCC(=O)Nc3cc(Cl)ccc3Cl)n2-c2ccccc2)o1 | -10 | 10% | 10 | 0 | -38
CC(=O)/C(N=Nc1c(C)n(C)n(-c2ccccc2)c1=O)=C(\C)O | 4 | 7% | 2.4 | -1 | ·
CC1(C)c2cc(Cl)ccc2-n2c1cc(O)c(-c1ccccc1)c2=O | · | 59% | 5.6 | 99 | ·
Cc1ccccc1C(=O)N1CCN(CCNC(=O)C(=O)Nc2ccc(Br)cc2)CC1 | · | · | 1.2 | 10 | ·
Cc1nc2ccccc2n(CC(=O)Nc2cc(Cl)cc(Cl)c2)c1=O | 15 | -4% | 4.3 | 0 | ·
COC(=O)C1CCN(CC(=O)Nc2ccc(OC)c(Cl)c2)CC1 | 9 | -5% | -0.8 | -1 | ·
CNC(=O)c1[nH]cnc1C(=O)Nc1ccccc1OC | -2 | -2% | -1.6 | -1 | -27
COc1cccc(-n2c(=S)[nH]c3ccccc3c2=O)c1 | 9 | -3% | -0.6 | -7 | ·
Cc1ccnc(NC2(C(F)(F)F)N=C3SCCN3C2=O)c1 (stereo not given) | 2 | 2% | 1.6 | 2 | ·
O=C(Cn1cc2c(n1)CCCCC2)NCc1ccccc1 | 4 | -3% | 0.8 | 1 | -29 | Arbovirus inh repeat=-5
C=CCN=C1N[C@@H](c2ccccc2)C(C(=O)OC)=C(C)N1CCOC | · | · | -0.6 | -6 | ·
CNC(=S)N1CCC(NC(=O)C(Cc2ccc(F)cc2)NC(C)=O)CC1 (stereo not given) | 14 | 2% | -2.1 | -4 | ·
COc1cc(NC(=O)n2ncc3cc(Cl)ccc32)cc(OC)c1 | · | · | 0.2 | 11 | ·
OCCN(Cc1ccccc1)Cc1cccc(Cl)c1Cl | 1 | -2% | 6.4 | 20 | -2
COc1ccccc1OCCc1nnc(N)s1 | -6 | -3% | 0.0 | 9 | -14
CCOC(=O)c1sc(NC(=O)c2ccc(CC)s2)nc1C | -33 | -6% | 1.2 | -10 | -29
COc1ccc(N2CCN(C(C)C(=O)N3CCCC3)CC2)cc1 (stereo not given) | 4 | -1% | -3.4 | -8 | ·
Oc1c(Br)cc(/C=N/Nc2nncc3ccccc23)cc1Br | · | · | -1.2 | -3 | ·
Cn1ncc(Cl)c1C(=O)N1CCC2(CC1)OCCO2 | · | · | 1.6 | ? | ·
Cn1c(=O)c(=O)n(C)c2cc(S(=O)(=O)N3CCCC3C(=O)Nc3ccc(F)cc3)ccc21 (stereo not given) | · | · | 1.6 | ? | ·
Nc1nc(SCC(=O)NC2CCCC2)[nH]c(=O)c1-c1ccccc1 | 5 | -10% | · | · | -16
CCNc1nc(Oc2ccc(=O)[nH]n2)nc(N2CCOCC2)n1 | 2 | -3% | -0.8 | 2 | 10
Nc1ccc2cc(Br)ccc2c1 | -3 | 0.63µM* | 0.2 | 95 | ·
COc1ccc(C(=O)N2CC(c3ccccc3)CC2=O)cc1 (stereo not given) | · | 4% | 1.0 | 2 | ·
Cc1ccc(N2C(N)=C(C#N)C3(C(=O)N(C)c4ccccc43)C3=C2CC(C)(C)CC3=O)cc1Cl (stereo not given) | 11 | -3% | 0.0 | -1 | -21
COc1ccc(-c2c3c(=O)n(C)c(=O)n(C)c3cn2Cc2cccnc2)cc1 | 4 | -11% | 0.0 | -4 | -27
O=C(CSc1nc(-c2ccc(F)cc2)cs1)N1CCc2ccccc21 | -3 | -2% | -2.1 | -7 | -20
Nc1ccccc1C(=O)N/N=C1/C2CN3CCN(C2)CC1(Cc1ccccc1)C3 | -2 | 2% | 0.1 | -3 | ·
CCC(=O)Nc1ccc(S(=O)(=O)N2CCCCC2)cc1OC | 3 | -9% | · | -8 | -27
Cc1cccc(C)c1NC(=O)CN(C)C(=O)CN1C(=O)NC2(CCCC2)C1=O | · | · | -2.5 | 3 | ·
O=C(NNS(=O)(=O)c1ccccc1)C1CCCCC1 | · | · | -1.1 | 0 | ·
O=C(O)CC(c1ccccc1)c1ccccc1 | 1 | -8% | -0.4 | -9 | -34
Cc1ccc(C(=O)C(C)OC(=O)Cc2n[nH]c(=O)c3ccccc23)cc1C (stereo not given) | · | · | -8.9 | -1 | ·
O=C(NCC(=O)N(c1cccnc1)C(C(=O)NC1CCCCC1)c1ccccc1)c1ccco1 (stereo not given) | · | · | -4.9 | 3 | ·
CC(=O)c1cccc(NC(=O)c2ccccc2-c2ccccc2C(=O)O)c1 | · | · | 0.6 | -6 | ·
CCC(=O)N1CCc2cc(S(=O)(=O)NCCCN(CC)Cc3ccccc3)ccc21 | 2 | 2% | 0.6 | -12 | -28
O=C(COc1cc2oc(=O)c3c(c2cc1Cl)CCC3)NCCCN1CCCC1=O | · | · | 0.1 | 4 | ·
COc1ccccc1NC(=O)c1ccc(NC(=O)COC(=O)C2CC2C)cc1 (stereo not given) | 3 | -1% | 1.5 | 5 | -11
S=C(Nc1ccccc1)N1CCC(Cc2ccccc2)CC1 | · | · | 3.5 | -5 | ·
CC(=O)N1CCc2cc(S(=O)(=O)NC(CC(C)C)C(=O)N3CCn4c3nc3ccccc34)ccc21 (stereo not given) | -1 | -2% | -0.8 | -7 | 0
COCCCNC(=S)N(CCO)Cc1cc2cc3c(cc2[nH]c1=O)OCCO3 | · | · | -3.2 | 1 | ·
COc1cc(C)c(S(=O)(=O)Nc2ccc(CC(=O)O)cc2)cc1C | 5 | -8% | 0.0 | -3 | -21
